Prx2 Sm inh = Schistosoma Mansoni Peroxiredoxins (Prx2) | S. mansoni Prx2 activity coupled to TGR/GSH (TGR is thioredoxin glutathione reductase), NADPH fluorescence loss, qHTS; some inactives read as strong as hits | Potency, µM | actives 0.07% (n = 65,000); active means full or partial inhibition curve with a strong effect at the top dose; inconclusive means weaker partial or single-point curve; inactive means no accepted curve; note: series up to 57 µM; many of its hits are not listed in these tables
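Prx2 activity was followed as the loss of NADPH fluorescence (ex 365/em 450 nm), read every 30 sec for 8 min after H2O2 start. The enzyme mix (50 nM Prx2, 25 nM TGR, GSH, NADPH; pH 7.4 phosphate buffer) was incubated with compound for 15 min at room temperature first.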
LT uptake inh = qHTS Assay for Anthrax Lethal Toxin Internalization. AID 912, 2007. actives 0.67% (n = 70,000). Potency, µM (top dose mostly 40 µM), without a hit: at the top dose activity change, negative = inhibition, usual class: inhibitors. Cells, anthrax lethal toxin internalization, FRET ratio (460/530); active = well fitted falling ratio curve with the 530 nm signal flat; inconclusive = other ratio curves, or a change in one channel alone; inactive = flat curves in the ratio and both channels; the % refers to the ratio; note: % is set by controls: 0 for no effect and ±100 for the full control effect; nearly all actives have a fitted effect of over 50% in size; tested in ME-180 cells; beta-lactamase reporter
* hit, by the source's call; ? = inconclusive; nt = no result given; & = joins results of further samples; [ ] = remark or other dose. Potency is the fitted concentration of half-maximal effect. This is a subset; count on the stated rates, not on these rows.

smiles,LT uptake inh,Prx2 Sm inh
Cn1c(SCC(=O)c2ccc(F)cc2)nnc1-c1ccccc1N,?,>57
CCOC(=O)Nc1ccc2c(CN3CCN(S(=O)(=O)c4ccccc4)CC3)cc(=O)oc2c1,-2%,>57
CCOc1ccc2[nH]c(S(=O)(=O)CC)nc2c1Cl,-16%,>57
CC(=O)c1c(N)[nH]c(-c2ccccc2)nc1=S,-12%,>57
CCCS(=O)(=O)N1CCCC(C(=O)N2CCOCC2)C1 (stereo not given),-6%,>57
COc1ccc(-n2c(=O)c(-c3cccs3)nc3cnc(N4CCN(C)CC4)nc32)cc1,?,>57
O=C1CC(N2CCN(C3CC(=O)N(CCc4ccccc4)C3=O)CC2)C(=O)N1CCc1ccccc1 (stereo not given),-2%,>57
COC(=O)C[C@](O)(CCCC(C)(C)O)C(=O)O[C@@H]1C(OC)=C[C@]23CCCN2CCc2cc4c(cc2[C@H]13)OCO4,?,>26
CC1CC(c2ccccc2)n2nc(NC(=O)CCc3ccccc3)nc2N1 (stereo not given),7%,>57
CCN1CCCC1CNC(=O)CCNC(=O)c1cc(OC)c(OC)c(OC)c1 (stereo not given),16%,>57
COc1cc(/C=N/n2cnnc2)ccc1OCC(=O)N1CCOCC1,3%,>57
Cc1cc(C)n2nc(SCc3ncc(-c4ccccc4)o3)nc2n1,15%,>57
CCN1CCc2nc(NC(=O)c3ccc4c(c3)OCCO4)sc2C1,15%,>57
Cc1nnc2sc(-c3ccc(-c4ccc(Cl)c(C(F)(F)F)c4)o3)nn12,-8%,>57
CCOc1ccc(-c2nnc(SCC(=O)N3CCOCC3)o2)cc1,8%,>57
CCOC(=O)c1cnc(Nc2nc3ccccc3o2)nc1CN1CCN(c2ccccc2)CC1,0%,>57
COc1ccc(Br)cc1CNC(=O)C1CCC(=O)N1C(C)C (stereo not given),-9%,>57
COc1ccc(-c2cc(C(F)(F)F)nc(NCc3ccco3)n2)cc1OC,-25%,>57
O=C(O)[C@H]1CC=CC[C@@H]1C(=O)Nc1cccc(O)c1,-3%[8 µM],>57
O=C(NC1CCCCC1)N1CCCCCC1,-4%,nt
O=C(O)C[C@H]1OCC=C2CN3CC[C@]45c6ccccc6N[C@@H]4[C@H]1[C@H]2C[C@H]35,1%[8 µM],>57
Oc1ccc(Cl)cc1Cc1ccccc1,?,nt
Cn1cccc1Cc1nnc(SCC(=O)NC2CCCC2)n1-c1ccc(F)cc1,-24%,>57
COc1ccc(C2C3=C(CCCC3=O)Nc3nc(C(F)(F)F)nn32)c(OC)c1OC (stereo not given),5%,>57
CC1(C)C2CCC1(C)C(OC(=O)CSc1nc(N)cc(=O)[nH]1)C2 (stereo not given),-7%,nt
CCCCC(CC)C(=O)NCCCN1CCN(CCCNC(=O)C(CC)CCCC)CC1 (stereo not given),4%,>57
COc1cc(OC)cc(C(=O)Nc2ccccc2N2CCOCC2)c1,-4%,>57
CCC(C)(C)n1nnnc1CN(Cc1ccc(Cl)cc1)Cc1ccco1,?,>57
C[C@]12CN(CC[N+](C)(C)C)C[C@]1(C)[C@@H]1CC[C@@H]2O1,-2%[8 µM],>11
c1ccc(-c2nnc3n2NC(c2ccc4c(c2)OCO4)S3)cc1 (stereo not given),-7%,>57
Cn1c(SCc2c(F)cccc2Cl)nnc1-c1cnccn1,11%,>57
O=C(CCn1c(=O)oc2ccccc21)N(Cc1ccccc1)c1ccccn1,-11%,>57
O=C(c1cc2nc(-c3ccccc3)cc(-c3ccccc3)n2n1)N1CCN(C(=O)c2ccco2)CC1,-15%,nt
CC(=O)N1CCc2cc(S(=O)(=O)Nc3ccccc3N3CCN(C)CC3)ccc21,-6%,>57
CCOC(=O)c1oc2ccccc2c1NC(=O)c1cccs1,7%,>57
CC(CSc1nc2ccccc2s1)Cn1c(N2CCCC2)nc2c1c(=O)[nH]c(=O)n2C (stereo not given),-5%,>57
O=C(CCn1c(=S)oc2ccccc21)Nc1ccc2c(c1)OCCO2,?,>57
O=C(Cn1cccc1C(=O)c1ccccc1)NCc1ccccn1,-4%,>57
CC(CNC(=O)c1ccc(Br)o1)NC(=O)c1ccc(Br)o1 (stereo not given),-10%,>57
Cc1ccc(C(=O)CNc2nc3c(c(=O)[nH]c(=O)n3C)n2Cc2ccccc2)cc1,-11%,>57
CC(CN1CCOCC1)OC(=O)COc1ccc(F)cc1 (stereo not given),-8%,>57
CCOC(=O)C1=C(C)NC(=O)NC1c1c(OCC(=O)N2CCCCC2)ccc2ccccc12 (stereo not given),-6%,>57
CCOC(=O)N1CCN(C(=O)CCC(=O)N2CCOc3ccc(C)cc32)CC1,-4%,>57
C=CCc1ccccc1OCC(O)CNC (stereo not given),-5%,>57
CC(C)NC(=O)[C@@H]1C[C@@]1(C)[C@@H](NC(=O)OCc1ccccc1)c1ccccc1,-1%,nt
COCCN1C=C(C(=O)OC)C(c2cc3c(cc2Br)OCO3)C(C(=O)OC)=C1,?,nt
Cc1ccc(S(=O)(=O)N(C)Cc2ccc(-c3nnco3)cc2)cc1,-7%,>57
Cc1nn(CC(=O)Nc2ccc(C(=O)N3CCCCC3)cc2)c(=O)c2ccccc12,?,>57
COc1ccccc1NC(=O)CSc1nnc(COc2ccc(Cl)cc2)n1Cc1ccco1,?,>57
O=C(CSc1c[nH]c2ccccc12)N1CCOCC1,-1%,>57
COC(=O)c1cccc(NC(=O)NC2CCCN2S(=O)(=O)c2ccc(Cl)cc2)c1 (stereo not given),-24%,>57
O=C(c1ccco1)N1CCN(C(=O)C(Cc2ccccc2)NS(=O)(=O)c2cccs2)CC1 (stereo not given),-17%,>57
COc1ccc(OC)c(NC(=O)C2CC(=O)N(c3ccccc3)C2)c1 (stereo not given),-4%,>57
Nc1ccccc1SCc1csc(-c2ccc(Cl)cc2)n1,?,>57
COc1cc2c3c(c1)C1(C(=O)N3C(C)(C)C=C2C)C(C#N)=C(N)Oc2cc(C)oc(=O)c21 (stereo not given),-4%,>57
CC1(C)CC(NC(=O)c2ccccc2Cl)CC(C)(C)N1,6%,>57

(further entries)
smiles,LT uptake inh,Prx2 Sm inh
CCCCCCn1c(=O)c(-c2nc3ccccc3c(=O)[nH]2)c(O)c2ccccc21,6%,>57
CCOC(=O)CSc1nc2ccsc2c(=O)n1C1CCN(C(=O)OCC)CC1,nt,>57
Cc1ccc(C(C(=O)NCc2ccco2)N(C(=O)Cn2nnc3ccccc32)c2ccccc2)o1 (stereo not given),-7%,>57
CN(Cc1cccc(F)c1)C(=O)c1ccc(S(=O)(=O)C(F)F)cc1,-5%,>57
Nc1cc(=O)[nH]c(SCc2nnc(-c3ccccc3)o2)n1,?,>57
O=C(Nc1ccccc1)OCCOc1ccccc1,-1%,nt
CCCCCn1c(=N)n(CC(O)COc2ccccc2OC)c2ccccc21 (stereo not given),?,>57
COc1cc2[nH]c(=O)n(-c3ccccc3)c(=O)c2cc1OC,-2%,>57
O=C(CN(CC1CCCO1)C(=O)CCC(=O)Nc1ccccn1)NCC1CCCO1 (stereo not given),-4%,>57
CC1CCCN(C(C(=O)Nc2ccc3c(c2)OCO3)c2ccccc2)C1 (stereo not given),-9%,>57
COc1cc2ccccc2cc1C(=O)Nc1ccccc1N1CCN(S(C)(=O)=O)CC1,-12%,>57
CCCCOc1cc(C[C@@H]2CNC(=O)N2)ccc1OC,-7%&12%,>57&>57
O=C(O)Cn1c(-c2cscn2)nc2ccccc21,-14%,>57
COc1cc(C)c(S(=O)(=O)N2CCOCC2)cc1C(C)C,-9%,>57
Cc1ccc(Cn2c(CN3CCOCC3)nc3c2c(=O)n(C)c(=O)n3C)cc1,-15%,>57
COCCCNS(=O)(=O)c1ccccc1,-5%,nt
CC1(C)CC(=O)C2=C(C1)NC(Nc1nc3ccccc3o1)=NC21CCCCC1,8%,>57
O=C1CCC/C1=c1\s/c(=C\c2cccnc2)c(=O)n1-c1ccccc1,23%,>57
COc1ccc(-c2nnc(SC(C)C(=O)Nc3cccc(Cl)c3)o2)cc1 (stereo not given),-17%,>57
CC(=O)c1c(C)[nH]c(C(=O)OC2CCCCC2=O)c1C (stereo not given),9%,>57
CC(NC(=O)c1nn(C)c(=O)c2ccccc12)c1ccccc1 (stereo not given),-5%,nt
CNCCCCOc1ccccc1Cc1ccccc1,32µM*,>57
ClC=C(Cl)Cl,2%,nt
CCCCNC(=O)CSc1nnc(-c2ccco2)n1C,-4%,>57
CN(CC(=O)NCCCN1CCOCC1)S(=O)(=O)c1ccc(Br)cc1,10%,>57
C=CCn1c(N2CCCCCC2)nc2c1c(=O)[nH]c(=O)n2C,-14%,>57
OCCN1CCN(CCCN2c3ccccc3Sc3ccc(C(F)(F)F)cc32)CC1,?,>57&>57
CCc1nc(SCC(=O)Nc2nccs2)c2oc3ccccc3c2n1,-10%,>57
O=C(NCc1ccc(F)cc1)c1cc(-c2ccco2)on1,0%,>57
Cc1nn(Cc2ccccc2Cl)c(C)c1NC(=O)C1C2CCC(O2)C1C(=O)O (stereo not given),-2%,>57
CSc1ccc(NC(=O)Nc2cc(C)ccn2)cc1,2%[8 µM],>57
Cc1cc2oc(C(=O)NC3CCS(=O)(=O)C3)c(C)c2cc1C (stereo not given),7%,nt

Shown with two lines to a compound: entries from further up
Fields – LT uptake inh	Prx2 Sm inh
- CCc1nc(SCC(=O)Nc2nccs2)c2oc3ccccc3c2n1
    -10%	>57
- O=C(NCc1ccc(F)cc1)c1cc(-c2ccco2)on1
    0%	>57

More results
smiles,LT uptake inh,Prx2 Sm inh
Clc1ccc(CN2C3=NCCN3c3ccccc32)cc1,-22%,>57
Cc1cc(O)ccc1Nc1nc2ccccc2nc1Nc1ccc(O)cc1C,16%,nt
CCn1c(Cc2ccccc2)nnc1SCC(=O)OC(C)C,-14%,>57
Cc1nnc2n1NC(c1ccc(Cl)cc1)C(C(=O)N1CCC(C)CC1)S2 (stereo not given),-3%,>57
CC(=O)OCC(OC(C)=O)C(OC(C)=O)C(OC(C)=O)C(=O)Nc1ccc(C)cc1C (stereo not given),8%,>57
O=C(NCc1nc2ccccc2[nH]1)c1cccs1,2%,>57
O=C1c2cccnc2C(=O)N1Cc1ccc(F)cc1,4%,>57
COc1cc(OC)c(NC(=O)c2ccc(Br)o2)cc1Cl,-23%,>57
Cn1nccc1/C=C(/C#N)S(=O)(=O)c1ccccc1,1%,>57
CCc1cc2cccc(C)c2nc1SCC(=O)N1CCN(C(=O)c2ccco2)CC1,5%,>57
O=S(=O)(N1CCCCC1)n1nnc2ccccc21,4%,>57
CC(C)OC(=O)c1cccc(C(=O)OCc2ccco2)n1,?,>57
COCCN(CC(=O)Nc1ccc(F)cc1)S(=O)(=O)c1ccc(S(=O)(=O)N2CCCC2)cc1,8%,>57
CN(C)/N=N/c1nc[nH]c1C(N)=O,4%,nt
CCOc1ccccc1C(=O)NC(C(=O)Nc1ccccc1N1CCOCC1)C(C)C (stereo not given),0%,>57
O=c1[nH]c(=O)n(CCc2ccc(F)cc2)c(O)c1C=NCCCN1CCOCC1,-4%,>57
CCOC(=O)C(C(=O)OCC)C1N=C(N)N=C2Oc3ccccc3N21 (stereo not given),-2%,>57
O=c1c(C/C=C/c2ccccc2)c(O)nc2n1CCCS2,4%,>57
CCOC(=O)COc1cccc2c(=O)n(CC(=O)N3CCN(C(=O)OCC)CC3)ccc12,2%,>57
O=c1c(-c2cc(F)cc(F)c2)nc2cncnc2n1Cc1ccccc1,?,>57
CSc1ncc(Cl)c(C(=O)Nc2ccc(S(=O)(=O)N3CCOCC3)cc2)n1,5%,nt
N[C@H](Cc1ccc(F)cc1)C(=O)O,0%,>57
COc1ccc2[nH]c3c(=O)n(CCCCC(=O)N4CCC(C(N)=O)CC4)c(=S)[nH]c3c2c1,nt,>57
O=C(CSc1nc2ccccc2c2ccccc12)c1ccccc1,-10%[8 µM],>57
O=C(CCC(=O)N1CCN(C2CCCC2)CC1)Nc1nnc(C(F)(F)F)s1,-4%,>57
CCOc1ccc(-c2nn3c(-c4ccc(F)cc4)nnc3s2)cc1,nt,>57
C=C(C)C(=O)OCCCCCCCCCC,?,nt
CCCCn1c2c(c(=N)c3c1CCC3)CCC2,nt,>57
COc1ccc(CCC(=O)N2c3ccccc3CC2C)cc1 (stereo not given),-13%,>57
COc1ccc(C(C)=O)cc1CSc1nnc(C)s1,1%,nt
COc1ccc(N(CC(=O)Nc2ccc(C)cn2)S(=O)(=O)c2c(C)noc2C)cc1,-16%,>57
COc1cc(S(=O)(=O)N2CCC(O)(c3cccc(C(F)(F)F)c3)CC2)ccc1-n1cnnn1,-15%,>57
CCC(=O)NCCCCNC(=O)CC,-12%,>57
Nc1nnc(SCC(=O)Nc2ccc(F)c(Cl)c2)n1-c1ccccc1,-14%,>57
O=C1c2ccccc2C(=O)N1OCc1ccccc1,?,>57

High-throughput results: PubChem, National Center for Advancing Translational Sciences (NCATS)
